MT1-MMP act inh: blockers of MT1-MMP proenzyme processing, primary screen, HT1080 RFP-PRO-GFP cells, GFP/RFP fluorescence. actives 0.061% (n = 360,000). GFP/RFP ratio change, % at 20 µM. AID 651647, 2012. Matrix metalloproteinase-14 (Homo sapiens), P50281. GFP/RFP ratio fluorescence, overnight; percent of plate control window, DMSO zero;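 active = GFP/RFP ratio change of at least 30% with cell ATP level not reduced by more than half and red fluorescence within 50% of control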; also: strong numbers were not always called active
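Assay system: HT1080 cells carrying an RFP-PRO-GFP reporter | Dosing: Single dose of 20 µM compound, 1% DMSO final | Incubation: Cells overnight before dosing, compound overnight, 37 °C, 5% CO2 | Evaluation: GFP/RFP fluorescence ratio | Control set: DMSO and RFP-L50D-GFP cell wells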
Rce1 inhib: yeast Rce1p protease inhibitors, primary screen, biochemical, fluorescence, cell-free homogeneous | CAAX prenyl protease 2 (Saccharomyces cerevisiae (strain ATCC 204508 / S288c)), Q03530 | actives 0.27% (n = 290,000) | yeast membranes, quenched prenylated peptide cleavage fluorescence | AID 2563, 2010 | calls only;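 active = fall in fluorescence gain of 50% or more versus controls, with final raw signal at or below 3038400; inconclusive = same 50% fall but final raw signal above 3038400; inactive = fall in fluorescence gain under 50%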;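 also: plate controls were neutral control wells for no effect and wells lacking membranes for full effect; tested at 10 µM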
Target sequence (Q03530 whole entry, looked up): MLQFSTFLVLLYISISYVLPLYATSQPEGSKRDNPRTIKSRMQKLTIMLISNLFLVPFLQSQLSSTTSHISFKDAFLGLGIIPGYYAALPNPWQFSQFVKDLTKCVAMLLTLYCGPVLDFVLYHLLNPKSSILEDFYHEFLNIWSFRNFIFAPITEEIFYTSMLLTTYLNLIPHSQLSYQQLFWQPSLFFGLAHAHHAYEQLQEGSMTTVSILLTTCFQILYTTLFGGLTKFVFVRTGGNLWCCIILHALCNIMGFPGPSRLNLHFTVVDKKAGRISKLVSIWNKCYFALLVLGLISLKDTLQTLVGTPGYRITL
UUG fidelity: modulators of yeast start codon fidelity, primary screen, whole organism, S. cerevisiae, single point, plate reader; S. cerevisiae UUG-firefly luciferase reporter, luminescence/redox ratio; activity score, % at 18.7 µM; actives 0.13% (n = 350,000); AID 602363, 2012;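 active = replicate mean at a twofold rise or more, about +100% in these data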;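 also: firefly luciferase made from a UUG start codon reports start codon fidelity; reporter light over untreated wells divided by growth signal over untreated wells; some hits fall short of that in this replicate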
eIF4H inh: human eIF4H binding inhibitors, primary screen, translation initiation inhibitor project, biochemical, uHTS, fluorescence polarization | Eukaryotic translation initiation factor 4H (Homo sapiens), Q15056 | eIF4H fluorescence polarization binding assay | inhibition, % at 35 µM | actives 0.94% (n = 290,000) | AID 2012, 2009;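 active = 50% or more with normal probe brightness, or confirmed in later tests; inconclusive = above 50% with abnormal brightness, or retests that disagree; inactive = below 50% or failed in later tests; about a fifth of its hits are not listed in these tables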;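 also: calls also rest on retests at 20 µM and on dose response follow-up; 0% = protein and probe with vehicle and 100% = probe without protein; strong numbers were not always called active; many hits fall short of the cut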
PABP polyA inh: PABP poly(A) RNA binding inhibitors, primary screen, biochemical, fluorescence polarization, uHTS. actives 1% (n = 290,000). inhibition, % at 35 µM. AID 2014, 2009;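 active = 50% or more with normal probe brightness, or confirmed in later tests; inconclusive = above 50% with abnormal brightness, or retests that disagree; inactive = below 50% or failed in later tests; about a fifth of its hits are not listed in these tables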;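 also: calls also rest on retests at 20 µM and on dose response follow-up; controls were probe without protein and protein plus probe with vehicle; some compounds called inactive have numbers as strong as hits; many hits fall short of the cut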
CSC inhib: cancer stem cell viability inhibitors, primary screen, luminescence. cancer stem cell-like cells viability. inhibition, % at 7.5 µM. actives 1.1% (n = 300,000);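 active = mean at 75% or more and at least half the replicates too; inconclusive = mean and replicates disagree; tested in HMLE shEcad cells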;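 also: 0% = median of negative and 100% = median of positive control wells; the first replicate is given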
HIV Env fusion: inhibitors of HIV-1 Env-driven cell-cell fusion, primary screen, HeLa-JRFL effector, CEM21 target cells, luciferase. inhibition, % at 12.3 µM. actives 1.1% (n = 360,000);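 active = mean replicate inhibition score of at least 50 and every replicate individually at or above 50; inconclusive = only one of the two criteria met; inactive = mean below 50 and not all replicates reaching 50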;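 also: 0% = plate neutral controls and 100% = maraviroc near 300 nM; one replicate is shown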
eIF4H inh retest: also measured in eIF4H inh; calls as there; inhibition, %; compound at 20 µM; confirmation average;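 mean of two retest wells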
PABP polyA inh retest: also measured in PABP polyA inh; calls as there; inhibition, %; compound at 20 µM; confirmation repeats;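 mean of two retest wells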
MT1-MMP act inh RFP: also measured in MT1-MMP act inh; calls as there; RFP signal change, %; measured here: RFP expression control read;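 0 = vehicle wells; hits needed this value within 50% of zero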
The depositor's hits bear a star; i = inactive; ? = inconclusive; nt = no result given; & = joins results of further samples. These rows are one share of the data (hit frequency here may not be typical).

SMILES	MT1-MMP act inh	MT1-MMP act inh RFP	Rce1 inhib	UUG fidelity	eIF4H inh	PABP polyA inh	CSC inhib	HIV Env fusion	others
Nc1nonc1-n1nnc(C(=O)N/N=C/c2cccc(Cl)c2)c1-c1cccs1	-7	-7	i	-24	-7	-4	0	6
c1ccc(N(c2ccccc2)c2nc(-n3ccnc3)nc(-n3ccnc3)n2)cc1	-7	-8	i	-17	-3	3	20	nt
c1ccn2cc(CSc3nnc4ccccn34)nc2c1	2	2	nt	nt	-11	9	-13	nt
COc1ccc(C2c3c(-c4cc(Cl)c(C)cc4O)n[nH]c3C(=O)N2Cc2cccnc2)cc1OC (configuration not stated)	1	-4	i	-22	-7	-5	6	-68
Nc1ncnc2c1ncn2[C@@H]1O[C@H](C(=O)N[C@@H](CO)Cc2ccccc2)[C@@H](O)[C@H]1O	2	4	nt	-1	nt	nt	nt	-8
O=C(N/N=C/c1ccc(OC(F)F)cc1)c1ccc(Br)cc1	6	6	i	-19	-12	5	6	-15
Cc1ccc(C)c(NC(=O)Cn2nnc(C(=O)Nc3c(C)cccc3C)c2N)c1	17	-2	i	-10	-4	-6	1	10
COCCCNCCOc1ccc(C)cc1[N+](=O)[O-]	11	1	i	nt	1	-1	-13	-13
OCC1CCCN(C(=S)Nc2ccc(Nc3ccccc3)cc2)C1 (configuration not stated)	9	0	i	-32	?	53*	9	-14	PABP polyA inh retest=61*
COc1ccc(CCC(=O)OCC(=O)Nc2sccc2C(N)=O)cc1OC	11	-9	nt	-8	nt	nt	-7	nt
Cc1ccc(N2CC(C(=O)Nc3nnc(SCC(=O)NCC4CCCO4)s3)CC2=O)cc1C (configuration not stated)	0	5	i	-3	-1	-2	-2	-78
Cc1cccc(N2CCN(C(=O)COc3ccc4ccc(=O)oc4c3)CC2)c1C	1	-7	i	4	-12	-8	-3	23
CCCCn1c(N)c(N(CC(C)C)C(=O)CSCC(=O)Nc2ccc(C)cc2)c(=O)[nH]c1=O	2	1	nt	21	nt	nt	nt	6
CCOC(=O)C1CCN(C(=O)c2ccc3c(c2)NC(=O)/C(=C/c2ccccc2)S3)CC1	4	-1	i	-13	1	-8	6	0
CC1Sc2ccc(S(=O)(=O)N3CCN(c4cccc(Cl)c4)CC3)cc2NC1=O (configuration not stated)	7	-12	i	-10	-8	10	19	-17
O=C(Nc1ccc(C(=O)NCC2CCN(Cc3ccccc3F)CC2)cc1)C1=CSCCO1	1	4	i	4	-15	-2	-5	-7
O=C(NC(Cc1ccccc1)C(=O)O)/C(=C/c1ccc([N+](=O)[O-])cc1)NC(=O)c1ccco1 (configuration not stated)	-2	-1	i	-5	14	4	nt	-1
COc1ccc(CN=C2NN=C(c3ccc(Cl)cc3)CS2)cc1	6	5	i	nt	-9	0	-14	-12
CC(C)(C)c1ccc(OCC(=O)NCc2ccco2)c(Br)c1	0	1	i	-14	16	7	9	-97
O=C1C=C(c2ccc(Cl)cc2)C(=O)N1Nc1ccccc1	0	4	i	-34	-3	7	107*	nt
COC(=O)Nc1ccc(C)cc1NC(=O)OC	-4	0	i	-13	-1	-6	-2	-6
O=C(CN1CCOc2ccccc21)NC1CCCCCCC1	-1	2	i	-7	nt	nt	10	20
COc1ccc(OC)c(/C=N/NC(=O)c2csc3ccccc23)c1	1	3	i	-6	8	-2	-8	nt
O=C(NC1CCN(S(=O)(=O)c2ccc(F)cc2)CC1)c1ccc(F)cc1	0	0	i	-7	-7	-5	-16	12
COc1cc(OC)cc(C(=O)NCC(=O)OCC(=O)N2CCc3ccccc32)c1	2	3	i	nt	4	-3	-22	-7
CCOC(=O)C1=C(N)OC2=C(C(=O)CC(C)(C)C2)C1c1ccccc1OC (configuration not stated)	0	0	i	nt	5	8	-6	4
CN(C)S(=O)(=O)c1cccc(NC(=O)COC(=O)c2ccc(Br)o2)c1	4	9	nt	-13	0	12	-4	-5
CCc1ccc(/C=C2\SC(=S)N(CCCC(=O)Nc3ccccn3)C2=O)cc1	-6	3	i	nt	?	?	6	nt
CCOc1ccc(-n2cc(C(=O)NC(C)C)c3cc(OC)c(OC)cc3c2=O)cc1	2	4	i	16	-8	3	-1	-22
O=C(/C=C/c1ccccc1[N+](=O)[O-])c1ccccc1Br	-4	-9	i	-19	-5	-10	84*	3
O=[N+]([O-])c1ccc(CN2CCN(c3ccc(F)cc3)CC2)o1	1	6	i	-3	9	14	-10	5
O=C1N(CN2C(=O)C3(OCCO3)c3ccccc32)c2ccccc2C12OCCO2	-1	0	i	-5	5	-8	-15	nt
O=C(COC(=O)C1CCC1)Nc1ncc(Cl)cc1Cl	-5	1	i	-12	nt	nt	-1	nt
Cc1c(C(=O)N2CCCCC2)sc(NC(=O)C2CC2)c1C#N	-1	-2	i	-2	4	-8	-6	nt
Cn1c(SCC(=O)N2CCOCC2)nnc1-c1cnccn1	3	1	i	-5	3	2	-3	-99
COC(=O)COc1ccc2oc(=O)cc(C)c2c1	5	4	i	-11	4	0	-6	nt
CC1(C)NC(=O)N(CC(O)CN2CCOCC2)C1=O (configuration not stated)	-4	2	i	-16	-6	-4	-11	-29
CCOC(=O)C(C)Oc1cccc2c(=O)n(CC(=O)NCc3ccc4c(c3)OCO4)ccc12 (configuration not stated)	12	-9	i	-8	3	-6	55	24
CN(Cc1ccccc1)C(=O)c1nc[nH]c1C(=O)N1CCN(C(=O)OC(C)(C)C)CC1	2	3	nt	1	nt	nt	-13	0
Cn1c(=O)oc2ccccc2c1=O	-4	1	nt	-5	nt	nt	nt	-16
O=C(COC(=O)c1ccccc1Cc1ccccc1)Nc1ccc(SC(F)F)cc1	4	-1	i	-18	-2	53	37	nt	eIF4H inh retest=1;PABP polyA inh retest=20
O=C(NC1CCCC1)C1CCN(C(=O)c2ccc(Cl)cc2Cl)CC1	2	-3	i	13	-8	3	-7	1
COc1ccccc1CNC(=O)c1ccc(C)s1	2	-1	i	-19	-9	-8	10	-5
CCCCN1C(=O)C(CC(=O)NCC2CCCCC2)CC(C(=O)N2CCOCC2)=C1C (configuration not stated)	-2	0	nt	17	nt	nt	nt	1
Cc1ccc2c(c1)nnn2C1CCN(CC(=O)NCCc2ccccc2)CC1	8	-4	i	-8	-7	-9	0	nt
COc1ccccc1NC(=O)C(C)N1C(=O)c2ccccc2C1=O (configuration not stated)	0	2	i	-10	-7	1	-4	3
CC(=O)Nc1ccc(S(=O)(=O)N(C)CC(=O)N(C)Cc2sccc2C)cc1	5	2	nt	-26	nt	nt	nt	-3
CCOc1ccc(OCCCC(=O)N(C)CC(=O)Nc2ccccc2Br)cc1	-1	-2	nt	-7	nt	nt	18	2
COc1ccc(NC(=O)C2C3CCC(O3)C2C(=O)O)c(C)c1 (configuration not stated)	3	5	i	-3	20	2	-12	-16
CC(C)(C)OC(=O)N1CCC(NC(=O)c2[nH]cnc2C(=O)Nc2ccc(Br)cc2F)CC1	1	-1	nt	6	nt	nt	nt	16

The results go on.
SMILES	MT1-MMP act inh	MT1-MMP act inh RFP	Rce1 inhib	UUG fidelity	eIF4H inh	PABP polyA inh	CSC inhib	HIV Env fusion	others
NS(=O)(=O)c1ccc(NC(=O)/C=C/c2ccco2)cc1	-1	2	i	nt	49	-8	-12	3
CC(C)C(C(=O)Nc1ncn[nH]1)N1C(=O)c2ccccc2C1=O (configuration not stated)	2	6	i	5	-2	0	-5	nt
CCc1nnc(NC(=O)Cn2ccc(C(F)(F)F)n2)s1	0	1	i	nt	-2	10	-1	-28
CC(=O)N1CCc2cc(Br)cc(S(=O)(=O)NCc3ccccn3)c21	-2	-1	i	-31	-4	-2	-9	-35
CC(=O)N1N=C(c2ccccc2)CC1c1ccc(F)cc1 (configuration not stated)	-2	-3	i	2	-10	-4	-6	25
Cc1ccc(S(=O)(=O)N(Cc2cccnc2)Cc2cc3ccccc3[nH]c2=O)cc1	-1	-1	i	-5	0	2	-4	4
Cc1ccc(N(CC(O)CN2C(=O)NC(C)(C)C2=O)S(=O)(=O)c2ccc([N+](=O)[O-])cc2)cc1 (configuration not stated)	3	2	i	-5	-8	-3	-8	8
O=C(/C=C/c1ccc([N+](=O)[O-])cc1)Nc1cccnc1	7	3	i	1	22	-3	2	-204
O=C(CNC(=O)c1ccc(OC(F)F)cc1)NCC1CCCO1 (configuration not stated)	-3	5	i	-4	-7	-1	-12	2
CC(C)CC(=O)NC(=S)Nc1cc(C(=O)O)ccc1Cl	-4	1	i	-10	-2	2	-12	9

Three records drawn at random from the list so far, as already listed:
SMILES	MT1-MMP act inh	MT1-MMP act inh RFP	Rce1 inhib	UUG fidelity	eIF4H inh	PABP polyA inh	CSC inhib	HIV Env fusion	others
Cc1ccc(N(CC(O)CN2C(=O)NC(C)(C)C2=O)S(=O)(=O)c2ccc([N+](=O)[O-])cc2)cc1 (configuration not stated)	3	2	i	-5	-8	-3	-8	8
O=C(/C=C/c1ccc([N+](=O)[O-])cc1)Nc1cccnc1	7	3	i	1	22	-3	2	-204
NS(=O)(=O)c1ccc(NC(=O)/C=C/c2ccco2)cc1	-1	2	i	nt	49	-8	-12	3

Other structures:
SMILES	MT1-MMP act inh	MT1-MMP act inh RFP	Rce1 inhib	UUG fidelity	eIF4H inh	PABP polyA inh	CSC inhib	HIV Env fusion	others
CCc1nc2ccc(C(=O)NCCc3ccccn3)cn2c1N(CC)CCOC	-1	4	nt	-8	nt	nt	nt	16
CC1CCN(CCC(=O)Nc2ccccc2)CC1	0	6	i	-7	3	-14	-12	30
CC(=O)c1ccc(OCc2cc(C(=O)N3CCC(c4ccncc4)CC3)no2)cc1	-11	-21	i	-22	-10	0	-1	32
O=C1NC(=O)/C(=C\c2ccsc2)N1	-1	-1	i	-23	1	-7	0	-13
C[C@H](CO)N1C[C@H](C)[C@@H](CN(C)C(=O)NC2CCCCC2)Oc2c(NS(=O)(=O)c3cccs3)cccc2C1=O	2	0	nt	28&-13	nt	nt	4	-46
Cc1ccc(C)c(N2CCN(S(=O)(=O)c3ccc(-c4ccc(=O)[nH]n4)o3)CC2)c1	4	1	i	5	-1	-12	47	-1
O=S(=O)(c1ccccc1)N1CCC(O)(CSc2ccc(F)cc2)CC1	-12	-25	i	-6	-2	-19	22	32
CN1CCN(C(=O)c2ccc(CNS(=O)(=O)c3cccc(Cl)c3)cc2)CC1	-3	-1	i	-8	3	-12	20	7
COc1ccc2c(C=Nc3c(C)n(C)n(-c4ccccc4)c3=O)c(O)n(Cc3ccco3)c(=O)c2c1	-8&-32	-3&-6	i	-7&-10	15&46	12&32	nt	20
Cc1cc(C(=O)N2CCCC(Nc3ccc(F)cc3)C2)n(C)n1 (configuration not stated)	-3	2	i	-3	-1	19	-3	6
CCC1CSC(Nc2ccc(C(=O)/C=C/c3ccc(Oc4ccccc4)cc3)cc2)=N1 (configuration not stated)	-5	-15	i	nt	-18	-11	56	45
COc1cc(NC(=S)NC(=O)CCc2ccccc2)cc(OC)c1	3	1	i	-18	3	-1	4	-51
CN1C(=O)Cc2cc(S(=O)(=O)N3CCOCC3)ccc21	0	5	i	-8	-4	-6	nt	4
O=c1nc(-c2ccccc2)n(-c2ccccc2)c2ncccc12	-1	-1	i	-10	1	-2	nt	nt
